Compound activity deposited in PubChem by National Center for Advancing Translational Sciences (NCATS).
VACV mCherry inh: qHTS for Stage-Specific Inhibitors of Vaccinia Orthopoxvirus: mCherry Reporter Primary qHTS. Vaccinia virus mCherry reporter infection, fluorescence; about a quarter of the inactives have no number. 310,000 tested, 0.63% active. Potency, µM (series often up to 36.5 µM), inactives show top-dose activity change, negative = inhibition, usual class: inhibitors; active = well fitted inhibition curve with a large enough effect; inconclusive = small, poorly fitted or top-dose-only effect; inactive = no such curve, though single readings can be large or run the other way; tested in A549 cells; further: nearly all actives have a fitted effect of over 35% in size; inactives centre near -10
VACV Venus inh: qHTS for Stage-Specific Inhibitors of Vaccinia Orthopoxvirus: Venus Reporter Primary qHTS; Potency, µM (highest dose often 36.5 µM), for the others: at the top dose activity change, negative = inhibition, actives largely listed as inhibitors; Vaccinia virus Venus reporter expression, fluorescence; 330,000 tested, 0.46% active; AID 720580, 2013; active means well fitted inhibition curve with a large enough effect; inconclusive means small, poorly fitted or top-dose-only effect; inactive means no such curve, though single readings can be large or run the other way; tested in A549 cells; further: nearly all actives have a fitted effect of over 30% in size; inactives centre near -10
* hit, by the source's call; i = inactive; ? = inconclusive; nt = not tested or not shown; [ ] = dose if it differs, or a comment. On the % scale 0 is the no-effect control and ±100 the full control effect; potency means the concentration at half of the fitted maximal effect.

mol | VACV mCherry inh | VACV Venus inh
COc1ccc(C(=O)NCC(c2ccc(N(C)C)cc2)N2CCc3ccccc32)c(OC)c1 (centres undefined) | -11% | -22%
CCCC(c1nnnn1Cc1ccc2c(c1)OCO2)N1CCC(C(N)=O)CC1 (centres undefined) | i | -7%
CCOC(=O)c1c(C)[nH]c(C)c1S(=O)(=O)N(C)CC(=O)Nc1ccc(C)cc1Br | -14% | -1%
CCNC(=O)C1(C)CCCN(C(=O)CCc2cccs2)C1 (centres undefined) | -13% | -7%
Cc1cc(C(F)(F)F)cc(NNC(=O)NC(=O)c2c(F)cccc2Cl)n1 | ? | 0%
COC(=O)Cc1[nH]nc2c1C(c1cccc(OC)c1OC)C(C#N)=C(N)O2 (centres undefined) | -13% | -5%
CC1(C)CC2(C)OC2C2(C1)N=NC(=Nc1ccccc1)O2 (centres undefined) | ? | ?
CC1=C(C(=O)OCc2ccccc2)C(c2ccco2)C2=C(CC(C)(C)CC2=O)N1 (centres undefined) | nt | -24%
COc1ccc(C)cc1NC(=O)CN1CCN(c2ccc(F)cc2)CC1 | nt | ?
COc1ccccc1C(=O)NC(=S)Nc1ccc(N2CCCC2)cc1 | -21% | -10%
CCN(CCNC(=O)c1cccc(N2CCCC2=O)c1)c1ccccc1 | -27% | -22%
CCCCn1c2c(c(=O)n(C)c1=O)C(CC(=O)OCC(=O)Nc1cccc(C(F)(F)F)c1)C(=O)N2 (centres undefined) | nt | -22%
COc1ccc(OCC(=O)N2CCC(Cc3ccccc3)CC2)cc1 | -18% | -5%
COC(=O)CSc1nc(NC(C)(C)C)nc(N(C)C)n1 | -8% | -17%
O=C(Oc1cccc2cccnc12)c1cccc(N2C(=O)C3C4CCC(C4)C3C2=O)c1 (centres undefined) | ? | ?
COc1ccc(/C=N/NC(=O)c2cccnc2)cc1CN1CCc2cc(OC)c(OC)cc2C1C (centres undefined) | 6% | 0%
CC1(C)COC2(OC1)C(=O)Nc1ccccc12 | 2% | -6%
O=C(CNS(=O)(=O)c1cccc(Br)c1)NCC1CCCCC1 | i | -5%
COc1cccc(CNC(=O)C2CCN(S(=O)(=O)c3ccc(C)cc3)CC2)c1 | i | -8%
Cc1cccc(N(C(=O)c2ccc(CN3CCOCC3)o2)C(C(=O)NC2CCCCC2)c2ccc(F)cc2)c1 (centres undefined) | -2%[1.46 µM] | -8%
C=CCNC(=S)N1CCN(CCN=Cc2c(C)[nH]n(-c3ccc([N+](=O)[O-])cc3)c2=O)CC1 | -3% | 4%
COc1ccc(C)cc1NC(=O)C(Sc1nnc(-c2cccs2)o1)c1ccccc1 (centres undefined) | -9% | -10%
CC(C)(C)c1ccc(S(=O)(=O)NCc2ccccn2)cc1 | -2% | -16%
CCOC(=O)C(C)n1cnc2c(nnn2-c2cccc(Cl)c2)c1=O (centres undefined) | -19% | -12%

Two entries picked at random from those above:
mol | VACV mCherry inh | VACV Venus inh
CCOC(=O)C(C)n1cnc2c(nnn2-c2cccc(Cl)c2)c1=O (centres undefined) | -19% | -12%
CC(C)(C)c1ccc(S(=O)(=O)NCc2ccccn2)cc1 | -2% | -16%

Further entries follow.
mol | VACV mCherry inh | VACV Venus inh
CC(C=NNC(=O)C(=O)NN=CC(C)=Cc1ccccc1)=Cc1ccccc1 | i | 1%
CCN1C(C(=O)c2ccccc2)=C(OC(=O)c2ccc(Cl)cc2)c2ccccc2S1(=O)=O | -30% | -18%
CC(=O)N1C[C@H]2CON(C)[C@H]2C[C@H]1c1cccc(-c2ccc(C#N)cc2)c1 | i | -16%
COc1ccc2cc(-c3ccon3)ccc2c1 | -16% | -13%
Cc1cc(-c2nnc(CCC(=O)N(CC3CC3)CC3CCCO3)o2)no1 (centres undefined) | i | 4%
Nc1nonc1-c1nc2ccccc2n1CC(=O)N/N=C/c1ccc(-c2cccc(C(=O)O)c2)o1 | i | 8%
CN(c1c[nH]c(=O)[nH]c1=O)C1CCCCC1 | 0% | -4%
CSc1sc(C)cc1/C=N/O | -9% | -13%
CCOC(=O)c1ccc(NC(=O)/C(C#N)=C/c2ccc(OC)cc2)cc1 | -13% | 1%
COc1ccc(-n2ncc3c(SCC(=O)NNC(C)=O)ncnc32)cc1 | -25% | -17%
O=C(COc1ccccc1)NC1CCSc2ccccc21 (centres undefined) | -14% | -5%
O=C(NNc1ccccc1Br)C(O)(c1cccc(C(F)(F)F)c1)c1cccc(C(F)(F)F)c1 | 11µM* | ?
O=C(N/N=C/c1sc(=O)n(Cc2ccc(Br)cc2)c1Cl)c1ccco1 | -18% | -21%
Cc1cc(=O)[nH]c(NCCO)n1 | -17% | 0%
CCCNc1ccc(C(=O)OCC)cc1[N+](=O)[O-] | i | -1%
O=C(CSc1ncn[nH]1)N/N=C/c1ccc(C(F)(F)F)cc1 | i | -2%
COc1ccc(CNC(=O)C(C)Sc2ccc(S(=O)(=O)N3CCOCC3)cn2)cc1 (centres undefined) | -12% | -10%
Cc1ccc2[nH]c(C(=O)N3CCC(C(N)=O)CC3)cc2c1 | 0% | -9%
COc1ccccc1C(=O)Nc1nnc(-c2ccco2)s1 | -13% | -4%
CCCN(C(=O)Cn1ncc2c([nH]c3ccccc32)c1=O)c1ccc(F)cc1 | -3% | -3%
COc1ccc(C(=O)c2ccc(OC)c(Br)c2)cc1Br | -1% | -13%
O=C(Nc1nnc([C@H]2C[C@H](O)[C@@H](CO)O2)s1)Nc1ccc(F)cc1F | 1% | 17%
CCN1CC(CN(C)Cc2cn(-c3ccc(C)cc3)nc2-c2cccc(C)c2)CC1=O (centres undefined) | i | -17%
O=C(CC(=O)c1cc(Cl)ccc1O)c1ccccc1 | ? | ?
Cc1ccc(Cn2c(NCCc3ccccc3)nc3c2c(=O)n(C)c(=O)n3C)cc1 | ? | ?
Cc1cc2c(=O)[nH]c(N)nc2[nH]1 | ? | ?
COC(=O)C1CN(C(=O)COc2ccc(C)cc2)c2ccccc2O1 (centres undefined) | -9% | -4%
CCC(=O)N(CC(=O)Nc1sc(C)c(C)c1C(N)=O)C1CCCCC1 | -1% | -8%
CC(C)C1CC(CCNCc2ccc(N(C)C)cc2)(c2ccccc2)CCO1 (centres undefined) | ? | 1%
COc1ccc(C)cc1S(=O)(=O)Nc1cccc(-c2ccc(N3CCC(C)CC3)nn2)c1 | -24% | -12%
CC(Nc1cc(=O)n(C)c(=O)[nH]1)c1ccccc1 (centres undefined) | -13% | -14%
N#Cc1c(SC(C(=O)O)c2ccccc2)nc2c(c1-c1cccs1)CCCC2 (centres undefined) | -7% | -10%
Cc1ccc(C)c(NS(=O)(=O)c2c(C)ccc3nsnc23)c1 | nt | -10%
CCOc1ccc(NC(=O)/C(C#N)=C/c2ccc(N3CCCC3)c(C)c2)cc1 | -9% | -3%
CC(C)OC(=O)CC(=O)CSc1nc(-c2ccc(F)cc2)cc(-c2ccccc2)c1C#N | -9% | -8%
COc1ccc(N2C(=O)[C@@H]3C[C@H]2CN3Cc2cccn2-c2ccccn2)cc1Cl | -16% | -4%
Cc1cccc(Cn2cc(SCC(=O)Nc3nccs3)c3ccccc32)c1 | ? | -23%
C=C(CCO)C1=CCN(S(=O)C(C)(C)C)[C@@H]1CCO (some centres undefined) | -17% | -15%
CN1CCc2c(sc(NC(=O)c3ccc(S(=O)(=O)N4CCCCCC4)cc3)c2C(N)=O)C1 | -7% | ?
CC1(C(=O)NCc2cccc(C(F)(F)F)c2)CCN1Cc1cc2ccccc2o1 (centres undefined) | 12% | 3%
COc1ccccc1CC(=O)N1CCN(c2cccc(C(F)(F)F)c2)CC1 | ? | -24%
CC1CCN(S(=O)(=O)c2ccc3c(c2)N(CC(=O)NC(C)c2ccccc2)C(=O)CO3)CC1 (centres undefined) | -14% | -13%
COc1ccc(NC(=O)COC(=O)c2cc(Cl)ccc2O)cc1S(=O)(=O)N1CCCCC1 | i | 3%
O=C(c1ccc2c3c(cccc13)CC2)N1CCN(c2ncccn2)CC1 | -2% | -21%
Cc1ccccc1-n1c(=O)c2c3c(sc2n2cnnc12)CCCC3 | -10% | 5%
COc1cc(CNC(=O)c2ccc3c(c2)S(=O)(=O)c2ccccc2C3=O)cc(OC)c1 | -22% | -5%
Cc1ccc2nc(SC(C)C(=O)NC3CCCC3)[nH]c2c1 (centres undefined) | -12% | 3%
CCOc1ccccc1-c1nc(C(N)=O)c2[nH]c(=O)n(-c3cccc(C)c3)c2n1 | -29% | -23%
O=C(CSc1nncn1-c1cccnc1)Nc1ccccc1C(F)(F)F | -8% | -8%
Cc1ccc(Nc2ccc(C(=O)O)cc2[N+](=O)[O-])cc1 | -13% | 0%
O=C(NC(Cc1c[nH]c2ccccc12)C(=O)N/N=C/c1ccc(Cl)cc1)c1cccs1 (centres undefined) | ? | ?
CCCCNc1ccc(-c2nc(-c3ccco3)no2)cc1[N+](=O)[O-] | -19% | 1%
CCOc1ccc(S(=O)(=O)n2nc(C)c(S(=O)(=O)N3CCCCC3)c2C)cc1 | 3% | 0%
COc1ccccc1C(=O)NCCC(=O)N1CCN(S(=O)(=O)c2ccccc2C(F)(F)F)CC1 | -15% | -26%
Cc1cccc(Cn2c(=O)n(-c3cc(C)cc(C)c3)c(=O)c3oc4ccccc4c32)c1 | -14% | -20%
CCCSc1ccc([C@@H]2[C@@H]3C(=O)N(CC)C(=O)[C@@H]3[C@]3(C(=O)OC)CCCCN23)cc1OC | i | ?
CC(C)(C)OC(=O)NC1CNNC1=O (centres undefined) | -6% | -9%
CC1=Nn2c(nnc2-c2ccccc2)SC1 | nt | 4%
N#Cc1nc(-c2cccc3ccccc23)oc1NCC1CCCO1 (centres undefined) | -26% | -14%
CCCCC(=O)Nc1ccccc1C(=O)OCC(=O)c1ccc2c(c1)OCCO2 | i | -23%

Next section:
mol | VACV mCherry inh | VACV Venus inh
Cc1nc2ccccn2c(=O)c1NC(=O)c1cccc(F)c1 | -12% | -16%
COc1ccc(/C=N/NC(=O)c2ccccc2NC(=O)c2ccco2)c(OC)c1 | -6% | -23%
CC(CC(=O)N1CCN(c2ccccc2)CC1)S(=O)(=O)c1ccc2c(c1)NC(=O)CO2 (centres undefined) | -22% | -15%
CC12CCC(c3c(C(=O)N4CCOCC4)nn(-c4ccccc4)c31)C2(C)C (centres undefined) | -3% | -8%
CCOC1=C2CN(S(=O)(=O)c3ccc(C)cc3)[C@H](c3ccccc3)C[C@@H]2N(S(=O)(=O)c2ccc(C)cc2)[C@H](c2cccs2)C1 | 13% | -6%
CCOC(=O)C(=CNc1cccc(C)n1)C(=O)OCC | -15% | -6%
Cc1ccccc1S(=O)(=O)N(C)C[C@@H]1OCc2cnnn2CCCC(=O)N([C@@H](C)CO)C[C@@H]1C | i | -22%
O=C(Nc1ccc2oc(=O)ccc2c1)c1ccc(-c2cccc([N+](=O)[O-])c2)o1 | i[7.34 µM] | -13%[7.34 µM]
Cc1c(C(=O)Nc2cccc(-c3nnc4n3CCCCC4)c2)oc2ccccc12 | -2% | -20%
Cc1cc(C)c(C)c(C(=O)c2ccccc2C(=O)O)c1C | i | -12%
Cc1cccc(NC(=O)CN(C)S(=O)(=O)c2ccc3c(c2)c(=O)n(C)c(=O)n3C)c1C | -14% | -5%
Cc1ccc(C)c(S(=O)(=O)NCCc2csc(-c3ccc(Cl)cc3)n2)c1 | -20% | 0%

Among those listed so far, four have a COOH group.
mol | VACV mCherry inh | VACV Venus inh
Nc1nonc1-c1nc2ccccc2n1CC(=O)N/N=C/c1ccc(-c2cccc(C(=O)O)c2)o1 | i | 8%
N#Cc1c(SC(C(=O)O)c2ccccc2)nc2c(c1-c1cccs1)CCCC2 (centres undefined) | -7% | -10%
Cc1ccc(Nc2ccc(C(=O)O)cc2[N+](=O)[O-])cc1 | -13% | 0%
Cc1cc(C)c(C)c(C(=O)c2ccccc2C(=O)O)c1C | i | -12%

The list goes on:
mol | VACV mCherry inh | VACV Venus inh
C=CCOc1ccc(CNCc2cccnc2)cc1 | i | -1%
Cn1c(=O)c2c(-c3cccc(Br)c3)n(C(C)(C)CO)cc2n(C)c1=O | -12% | -1%
COc1cccc(C(=O)NCC(=O)N/N=C(C)\C=C\c2ccccc2)c1 | -15% | -15%
COc1ccc(NC(=O)NCc2cccn2Cc2ccc(F)cc2)cc1OC | ? | ?
CN(C)Cc1ccccc1CCc1ccccc1 | -4%[7.34 µM] | -2%[7.34 µM]
Cc1ccc(S(=O)(=O)N2CCN(C(=O)C(O)c3ccccc3)CC2)cc1 (centres undefined) | -11% | -14%
Cc1ccc(NC(=O)CSc2[nH]c(=O)ncc2C)cc1 | -14% | -12%
CN(C)S(=O)(=O)c1ccc(C(=O)NCC2CC2(Cl)Cl)cc1 (centres undefined) | -20% | -9%
CCc1ccccc1NC(=O)c1cnn(-c2ccccc2)c1C | -10% | -13%
NC(=O)COc1ccc(S(=O)(=O)N2CCCC2)cc1 | -12% | -4%
Cc1cc(/C=C2/NC(=O)NC2=O)c(C)n1-c1ccc(C#N)cc1 | 8% | -9%
CC(=O)Nc1ccc(/C=C/c2nc3ccccc3[nH]c2=O)cc1 | -3% | -10%
COc1ccc(CC(=O)NNc2ncnc3c2cnn3-c2ccc(C)cc2)cc1 | -13% | -8%
